Source: PubChem (several laboratories)
Bead autofluor = counter-screen for toxin protease inhibitors: compound fluorescence | compound autofluorescence counterscreen, microsphere flow cytometry; stronger effect = higher value | fluorescence intensity (no concentration beside the values) | 360,000 compounds, 3.1% hits | AID 624483;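 active = at least 3 SD above the mean of all compounds, about 16000 in these data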;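 also: 100 nL of 1 mM stock went into each well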
RN4220 kill = growth inhibition of S. aureus RN4220, primary screen, OD600; 330,000 compounds, 0.33% hits; 16 h; inhibition, % (no concentration beside the values); AID 1259311, 2017;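 active = z-score of -3 or lower and OD600 up to 0.18 on both plates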;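 also: plate controls were untreated cells for no effect and reference antibiotic for full effect; stock transfer was 100 nL into about 80 µL; one replicate is shown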
Mtb hypoxia inh = PubChem AID 1159583; fluorescence inhibition, % (test concentration not listed); 300,000 compounds, 0.1% hits; M. tuberculosis hypoxia-regulated fluorescent reporter, fluorescence;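 active = 35 to 45% if threefold the growth effect, above 45% if 1.5-fold the growth effect; inactive = the rest, general growth blockers included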;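 also: wells of about 50 µL received 100 nL stock; 0% = vehicle wells and 100% = reference inhibitor wells; whole bacteria with a GFP reporter of the hypoxia response; strong numbers were not always called active; many hits fall short of the cut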
PrP UTR inh = inhibition of PrP 5' UTR reporter expression; cell-based PrP 5' UTR mRNA reporter, plate reader; 340,000 compounds, 0.35% hits; inhibition, % (concentration not given with the values);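 active = every replicate at 50% or more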;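 also: 0 = median of the neutral control wells; tested in H4 reporter cells; numbers are from one replicate; inactives centre near -14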
BJeLR lethal = MLPCN primary cell-based screen for lethality selective to Ras in HRASV12 cells. BJeLR (HRASV12) viability, CellTiter-Glo ATP luminescence, 48 h; reference of the scale not given here. inhibition, % (test concentration not listed). 300,000 compounds, 0.17% hits. AID 1554, 2009;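 active = replicate mean above 50%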;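 also: 50 nL library stock added to about 25 µL; numbers are from one replicate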
Sa ugtP lethal = growth inhibition of ugtP-null S. aureus, primary screen, RN4220 ugtP deletion, OD600; 16 h; some inactives read as strong as hits; growth inhibition, % (no concentration beside the values); 330,000 compounds, 0.54% hits; AID 1259309, 2017;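 active = z-score under -3 and OD600 up to 0.15 on both plates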;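 also: plate controls were untreated wells for no effect and antibiotic for full effect; wells of about 80 µL received 100 nL stock; the first replicate is given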
Mtb hypoxia inh growth = further read-out of Mtb hypoxia inh, marked with its call; growth inhibition, %; measured here: M. tuberculosis growth (absorbance);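 0% = vehicle and 100% = reference antibiotic; read after six days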
* marks the source's active call; other numbers are inactive results; · = no result given.

SMILES	Bead autofluor	RN4220 kill	Mtb hypoxia inh	Mtb hypoxia inh growth	PrP UTR inh	BJeLR lethal	Sa ugtP lethal
COc1ccccc1C(=O)NCCC(=O)N1CCCC(C(F)(F)F)C1 (stereo not drawn)	5285	6.0	8	1	-16	-6	-6
COc1ccc(CCNS(=O)(=O)c2cnc(Cl)c(Br)c2)cc1OC	5332	-1.8	-5	-8	-7	-2	-3
CCN1CCN(S(=O)(=O)c2ccc(Cl)c(C(=O)NCc3ccco3)c2)CC1	·	6.1	-1	-4	-14	16	12
CN(/C=C1/C(=O)CNC1=O)CCO	4576	2.7	2	0	-9	1	3
O=C(O)c1ccc(/C=C2\SC(=S)N(NC(=O)c3ccccc3[N+](=O)[O-])C2=O)cc1	2866	5.5	-9	-6	-17	5	7
CCCCOC(=O)c1ccc(NC(=O)C(=O)NCc2ccco2)cc1	3103	9.2	-10	-1	-32	-12	12
CCCP(=O)(CC(=O)O)c1ccccc1 (stereo not drawn)	2535	-2.1	·	·	-18	0	1
Cc1cc(N2CCCCC2)nc(-c2ccc(Br)cc2)n1	4874	-2.0	17	6	-19	-1	87*
C=CCn1c(COc2cccc3cccnc23)nnc1SCC(=O)OC	21153*	2.2	2	1	-31	2	-8
O=[N+]([O-])c1ccc(Cl)c(/C=N/N2CCN(Cc3ccccc3)CC2)c1	21691*	·	·	·	-12	0	·
O=C(Cn1c(CC(=O)N2CCOCC2)nc2ccccc21)Nc1ccc2c(c1)OC(F)(F)O2	4337	-3.6	-3	6	-10	-3	-2
N#Cc1c(NCc2ccccc2)ccnc1NCc1cccnc1	4131	0.9	-3	8	-1	13	4
CC(C)C(=O)Nc1c2c(nc3ccccc13)N(C)CC2	9327	2.8	5	12	-15	-1	5
CCOC(=O)c1ccc(COC(=O)c2ccc(-c3nnc(-c4ccccc4)o3)cc2)o1	4790	4.8	·	·	-69	14	6
CCC(C)Sc1cccc(-c2nc3ccc(Cl)cn3c2NCc2ccccc2)c1 (stereo not drawn)	3175	0.5	8	10	-19	-3	-16
O=C(Nc1cnn(Cc2ccc(F)cc2)c1)c1cc2nc(-c3ccco3)cc(C(F)(F)F)n2n1	3265	5.9	8	1	-11	-7	-14
S=C(NC1CCCCC1)N1CCCCC1	4515	2.3	·	·	2	3	10
Cc1ccc2cc(C#N)c(SCC(=O)N3CCCc4ccccc43)nc2c1C	9934	0.5	-5	0	-56	3	-9
CCOC(=O)C1=C(O)/C(=C/c2cc(OC)c(OC)c(OC)c2)SC1=Nc1ccc(OC)cc1	3429	-1.4	4	7	2	5	-4
CC#CCN(Cc1ccco1)C(=O)C1CCC(=O)N(Cc2ccccc2F)C1 (stereo not drawn)	6047	-4.7	0	-14	-25	-9	-1
N/C(=N\OC(=O)/C=C/c1ccccc1)c1ccncc1	4561	8.5	3	5	-27	-4	18
OC(COC(c1ccccc1)c1ccccc1)CN1CCOCC1 (stereo not drawn)	2502	2.1	-7	4	-19	6	14
COc1ccc(C2c3c(C)nn(-c4ccccc4)c3NC(=O)N2c2ccccc2)cc1 (stereo not drawn)	2681	-1.1	3	26	-2	4	0
NC1=NC(=Nc2cccc(S(=O)(=O)N3CCOCC3)c2)c2ccccc21	4735	2.6	5	6	-19	14	4
O=C(O)CCNS(=O)(=O)c1ccccc1	2686	-3.4	·	·	5	0	-6
Cc1oc2ccc(OS(C)(=O)=O)cc2c1C(=O)OC(C)C	4203	12	11	6	-17	1	11
COc1cccc(N(CC(=O)N2CCN(C)CC2)S(=O)(=O)c2ccccc2)c1	7206	6.6	1	-2	-1	3	7
CCn1c(SCC(=O)N2CCCc3ccccc32)nnc1-c1ccoc1C	4114	-0.7	·	·	-29	-3	-6
O=c1[nH]c(CN2CCN(S(=O)(=O)/C=C/c3ccccc3)CC2)nc2ccccc12	3972	-2.0	-9	9	-18	-6	-1
COc1ccc(NS(=O)(=O)c2cccc(C(=O)NNC(=O)CNC(=O)c3ccc(C)cc3)c2)cc1	5287	0.0	-2	-6	-14	-6	2

One compound at a time, from the list above:
COc1cccc(N(CC(=O)N2CCN(C)CC2)S(=O)(=O)c2ccccc2)c1 is listed with Bead autofluor: 7206; RN4220 kill: 6.6; Mtb hypoxia inh: 1; Mtb hypoxia inh growth: -2; PrP UTR inh: -1; BJeLR lethal: 3; Sa ugtP lethal: 7
OC(COC(c1ccccc1)c1ccccc1)CN1CCOCC1 (stereo not drawn) is listed with Bead autofluor: 2502; RN4220 kill: 2.1; Mtb hypoxia inh: -7; Mtb hypoxia inh growth: 4; PrP UTR inh: -19; BJeLR lethal: 6; Sa ugtP lethal: 14

Entries above that contain an aryl thioether with sulfur outside any ring (4):
SMILES	Bead autofluor	RN4220 kill	Mtb hypoxia inh	Mtb hypoxia inh growth	PrP UTR inh	BJeLR lethal	Sa ugtP lethal
C=CCn1c(COc2cccc3cccnc23)nnc1SCC(=O)OC	21153*	2.2	2	1	-31	2	-8
CCC(C)Sc1cccc(-c2nc3ccc(Cl)cn3c2NCc2ccccc2)c1 (stereo not drawn)	3175	0.5	8	10	-19	-3	-16
Cc1ccc2cc(C#N)c(SCC(=O)N3CCCc4ccccc43)nc2c1C	9934	0.5	-5	0	-56	3	-9
CCn1c(SCC(=O)N2CCCc3ccccc32)nnc1-c1ccoc1C	4114	-0.7	·	·	-29	-3	-6

(list continues)
SMILES	Bead autofluor	RN4220 kill	Mtb hypoxia inh	Mtb hypoxia inh growth	PrP UTR inh	BJeLR lethal	Sa ugtP lethal
CCOC(=O)C1(Cc2ccccc2C)CCCN(C(=O)c2ccoc2)C1 (stereo not drawn)	4417	7.0	10	1	-8	5	13
CC(=O)c1c(C)[nH]c(C(=O)C(C)Sc2nnc(NC3CC3)s2)c1C (stereo not drawn)	4416	-4.0	-7	-1	-18	·	-4
COc1ccc(N2C(=O)CSC2c2ccc(F)c(F)c2)cc1 (stereo not drawn)	3729	5.1	3	-1	-32	0	1
COc1ccc(CN2C(=O)c3ccccc3C2C(=O)NC2CCCC(C)C2C)c(OC)c1 (stereo not drawn)	4070	2.4	-2	2	-11	2	16
Cc1ccc(-c2nnc(N3CCN(C(=O)CN4CCOCC4)CC3)c3ccccc23)cc1	9938	1.0	0	3	-19	3	-8
COc1ccc(C(CCNCc2ccc(OC)c(OC)c2)c2ccc(F)cc2)cc1 (stereo not drawn)	3777	1.2	11	-6	-19	-5	2
Cc1ccc(S(=O)(=O)N2CCN(C(=O)CN3CCOCC3)C2)cc1	3334	-3.5	-2	5	-14	10	-4
Cc1ccccc1S(=O)(=O)Cc1ccc(C(=O)N2CCN(c3ncccn3)CC2)o1	3276	4.2	6	11	-98	5	1
NC(=O)COn1c(SCC(N)=O)nc2ccccc2c1=O	3536	2.1	-15	-1	-16	-13	2
CC(NC(=O)COc1ccc(-c2ccccc2)cc1)C1CCCO1 (stereo not drawn)	6481	-1.2	3	21	-2	14	-1

Sorted by heavy-atom count (low to high): 3 of the compounds above.
SMILES	Bead autofluor	RN4220 kill	Mtb hypoxia inh	Mtb hypoxia inh growth	PrP UTR inh	BJeLR lethal	Sa ugtP lethal
CCOC(=O)C1(Cc2ccccc2C)CCCN(C(=O)c2ccoc2)C1 (stereo not drawn)	4417	7.0	10	1	-8	5	13
CCn1c(SCC(=O)N2CCCc3ccccc32)nnc1-c1ccoc1C	4114	-0.7	·	·	-29	-3	-6
COc1ccc(C(CCNCc2ccc(OC)c(OC)c2)c2ccc(F)cc2)cc1 (stereo not drawn)	3777	1.2	11	-6	-19	-5	2

Further entries follow:
SMILES	Bead autofluor	RN4220 kill	Mtb hypoxia inh	Mtb hypoxia inh growth	PrP UTR inh	BJeLR lethal	Sa ugtP lethal
CCc1ccc(-c2cc(C)no2)cc1S(=O)(=O)N1CCN(C(=O)c2ccco2)CC1	4316	8.2	7	3	-3	0	9
COc1ccc2nc(NC(=O)c3ccco3)sc2c1	3755	2.6	15	5	9	3	2
COc1ccc(C2CN(C)CC2C(=O)c2ccc(C)cc2)cc1Cl (stereo not drawn)	4954	8.7	2	14	-19	·	3
O=C(O)Cn1cc(/C=N/Nc2ccc([N+](=O)[O-])cn2)c2ccccc21	3292	·	·	·	4	1	·
O=C1c2ccccc2-c2nnc(-c3ccc(O)cc3)cc21	2448	12	5	4	-92	-4	-1
C/C(CC(=O)Nc1ccc([N+](=O)[O-])cc1)=N\NC(=O)c1ccccc1O	4229	·	·	·	-19	-6	·
Cc1cc(C(=O)OCC(=O)N2CC(C)OC(C)C2)c(C)n1-c1ccccc1 (stereo not drawn)	8756	6.4	12	4	-14	·	0
CN(Cc1ccc(Cl)cc1)C(=O)CCl	4342	27	·	·	26	-4	5
O=C(CCc1nc2ccccc2c(=O)[nH]1)OCc1ccc(Cl)cc1Cl	1955	3.6	0	2	-26	2	-3
Cc1nnc(N/N=C/c2cccs2)[nH]c1=O	3365	·	·	·	-5	-11	·
CC1CCCN(C(=O)CNC(=O)Cn2ccc3ccccc3c2=O)C1 (stereo not drawn)	4159	4.2	4	8	1	-3	9
Cc1ccc(OCC(=O)Nc2nnc(-c3ccco3)s2)cc1	3391	3.3	4	2	-8	1	9
CCOCCCNC(=O)c1cc2sc(Cl)cc2n1CC	18115*	4.3	-5	-1	5	-2	0
CCNC(=O)CSc1nc2ccccc2c(=O)n1-c1cc(OC)ccc1OC	10247	0.2	0	-5	1	5	-1
Cc1ccc(CN2CCN(C(=O)c3cccc4ccccc34)CC2)cc1	4082	-9.1	4	4	-22	3	35
Cc1onc(-c2ccccc2Cl)c1C(=O)OCC(=O)c1c(N)n(C)c(=O)n(C)c1=O	4654	3.5	11	0	-15	2	1
Oc1cccc(/C=N/n2c(C3CCCCC3)n[nH]c2=S)c1	3916	·	·	·	3	-1	·
CCOC(=O)CSc1n[nH]c(-c2cccnc2)n1	3254	5.5	4	4	-7	-6	5
O=C(O)c1ccc(CNC(=O)c2ccc(C(F)(F)F)cc2)cc1	4456	1.5	11	21	-9	0	-6
O=S1(=O)C=CC(Nc2ccccc2)C1 (stereo not drawn)	2855	3.3	7	3	5	5	0

Molecules shown so far with a cyano group:
SMILES	Bead autofluor	RN4220 kill	Mtb hypoxia inh	Mtb hypoxia inh growth	PrP UTR inh	BJeLR lethal	Sa ugtP lethal
N#Cc1c(NCc2ccccc2)ccnc1NCc1cccnc1	4131	0.9	-3	8	-1	13	4
Cc1ccc2cc(C#N)c(SCC(=O)N3CCCc4ccccc43)nc2c1C	9934	0.5	-5	0	-56	3	-9

Remaining list, next part
SMILES	Bead autofluor	RN4220 kill	Mtb hypoxia inh	Mtb hypoxia inh growth	PrP UTR inh	BJeLR lethal	Sa ugtP lethal
COc1cc(/C=C2\C(=N)N3N=C(S(C)(=O)=O)SC3=NC2=O)ccc1OCCOc1ccc(C)cc1	3701	6.5	-2	15	-7	4	2
Cc1cc(C(=O)N2CCCC(N3CCN(Cc4ccc5c(c4)OCO5)CC3)C2)n[nH]1 (stereo not drawn)	6178	4.0	15	5	-23	-5	3
CC(=O)Oc1ccc(C#CC=C2c3ccccc3C(=O)N2c2ccccc2)cc1	·	-7.6	7	9	·	·	78
CC1CCN(C(=O)c2ccc(N3C(=O)C4CCC(C)CC4C3=O)cc2)CC1 (stereo not drawn)	3414	-4.1	-6	-3	-19	7	-8
O=C(C1CC1)N1CCc2cc(Br)cc(S(=O)(=O)NCc3ccco3)c21	3127	5.5	4	4	-3	·	8
Cc1ccccc1-c1nnn(CC(=O)Nc2ccc3c(c2)OCO3)n1	4183	-6.0	2	-2	-12	2	1
COc1ccc2c(c1)C(=O)N(c1ccc(C)cc1)C(=O)C2	2336	4.9	·	·	-20	6	3
CCn1cc(CCC(=O)NCc2ccc(F)cc2)c2ccccc21	3702	1.5	12	3	26	11	-6
